Assay outcomes as filed in PubChem BioAssay.
Menin MLL FP FL – inhibitors of human menin-MLL interaction, wild-type MLL peptide. Fluorescence polarization, fluorescein-MLL peptide displacement from menin. FP activity change, % at 61.4 µM. 290,000 tested, under 10 active; inconclusive = falling polarisation curve, or a change in total fluorescence; inactive = total fluorescence flat and polarisation flat or rising; no compound was filed as active; the % refers to the polarisation; negative = inhibition;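 also: % of control where 0% means no effect; inhibitors lower the polarisation; unlabelled MLL peptide was the positive control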
TRPML1 inh – blocks the human TRPML1 channel; TRPML1-inducible cells, Ca2+ dye fluorescence, FDSS; active compounds read low; inhibition of EC80 agonist-evoked calcium signal; activity change, negative = inhibition, % (no concentration beside the values); 390,000 tested, 0.02% active; in the data active means activity change below about -50%; inconclusive means about -30% to -50%; inactive means above about -30%;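 also: stimulus is agonist 54-4 at its EC80 concentration; % is scaled to controls: 0 for no effect and ±100 for the full control effect; compound concentration not given in the record; the text of the record puts the active cut at -80%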
Target sequence (Q9GZU1 whole entry, looked up): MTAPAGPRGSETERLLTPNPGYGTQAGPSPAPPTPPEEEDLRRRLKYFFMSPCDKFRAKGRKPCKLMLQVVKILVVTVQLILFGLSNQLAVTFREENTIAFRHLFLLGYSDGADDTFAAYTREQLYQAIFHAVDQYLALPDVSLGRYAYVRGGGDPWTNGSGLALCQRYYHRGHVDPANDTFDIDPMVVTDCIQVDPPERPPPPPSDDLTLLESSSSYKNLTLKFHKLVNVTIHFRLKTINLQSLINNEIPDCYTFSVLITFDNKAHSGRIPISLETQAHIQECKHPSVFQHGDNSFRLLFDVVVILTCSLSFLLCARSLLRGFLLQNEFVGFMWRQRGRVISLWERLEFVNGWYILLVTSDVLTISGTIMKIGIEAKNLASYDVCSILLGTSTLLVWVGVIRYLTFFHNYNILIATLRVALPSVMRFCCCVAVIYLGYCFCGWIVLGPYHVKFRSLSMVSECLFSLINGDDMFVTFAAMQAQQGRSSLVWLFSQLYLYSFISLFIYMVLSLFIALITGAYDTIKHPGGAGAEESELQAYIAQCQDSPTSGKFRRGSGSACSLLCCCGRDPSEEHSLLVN
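TRPML1-DL cells, Tet-induced overnight (~16 h, 37 °C) at 1,500 cells/well, were loaded with Ca8 no-wash dye plus quencher for 45-90 min at room temperature. Compounds were pinned during FDSS kinetic reading; agonist 54-4 at EC80 (4 uM final) then added.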
PINK1 expr mod – changes PINK1 expression | PINK1 immunofluorescence, high-content cytometry, 24 h | Potency, µM (highest dose often 76.6 µM), for inactives: at the top dose activation (PINK1 increase), actives largely listed as activators | 410,000 tested, 0.2% active | AID 624263; active = well fitted activation curve with a large enough effect; inconclusive = small, poorly fitted or top-dose-only effect; inactive = flat fitted curve, though single readings scatter; cell line not stated here;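 also: potency is read from the fitted curve at half-maximal effect; % of control where 0% means no effect; nearly all actives have a fitted effect of over 65% in size; a mitochondrial uncoupler was the plate control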
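Fluorescence from anti-PINK1 antibody, together with nuclear and cell stains, was scanned on a laser-scanning cytometer. Before staining, stable-line cells were incubated 24 hours with compounds at 5 concentrations; primary antibody 12 h at 10 degrees C.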
TRPV1 potentiator – human TRPV1 potentiation; AID 540277; TRPV1-expressing cells, Fluo-8 calcium influx, capsaicin EC20 potentiation; host cell line not named in the record; control for the full effect not named in the record; potentiation, % at 8.33 µM; 320,000 tested, 0.02% active; Q8NER1; active means potentiation above 80%; inconclusive means 30% to 80%; inactive means below 30%; also: 0% is about no effect
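TRPV1-expressing cells were cultured overnight at 35.5C and loaded with Fluo-8 calcium dye for 40 to 90 min at room temperature. After a 10 s baseline, compound was added and calcium influx was read kinetically for 3 min (ex 480/em 520 nm).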
ClpP mod – qHTS Assay for Activators of ClpP; ATP-dependent Clp protease proteolytic subunit (Bacillus subtilis (strain 168)), P80244; purified B. subtilis ClpP, FRET peptide cleavage, 20 min; Potency, µM (series often up to 57.5 µM), for the others: at the highest dose activity change, negative = active; 340,000 tested, 1.9% active; AID 651965, 2013; active = well fitted falling curve with a large enough effect; inconclusive = small, poorly fitted or top-dose-only effect; inactive = no such curve, though single readings can be large or run the other way; also: potency is read from the fitted curve at half-maximal effect; the source files actives as falling curves though it sought activators and does not explain the sign; nearly all actives have a fitted effect of over 65% in size; many hits overshoot -100%
Target sequence (P80244 whole entry, looked up): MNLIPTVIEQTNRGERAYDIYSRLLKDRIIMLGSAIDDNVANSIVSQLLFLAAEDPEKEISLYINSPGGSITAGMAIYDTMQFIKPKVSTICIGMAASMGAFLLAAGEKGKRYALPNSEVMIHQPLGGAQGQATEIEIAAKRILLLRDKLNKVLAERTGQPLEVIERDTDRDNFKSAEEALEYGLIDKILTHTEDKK
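ClpP 10 microg/mL final, pH 8 Tris/KCl buffer with BSA, glycerol, Tween-20; compound pinned in; FRET-FV substrate; RT 20 min; Ex320/Em430; ΔFRET vs ADEP 5.8 microM, DMSO, no enzyme.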
TRPML1 ag – agonists of human TRPML1 channel; TRPML1-expressing cells, Ca2+ dye fluorescence, FDSS; host cell line not named in the record; reference of the full effect not given here; activation, % (concentration not given with the values); 410,000 tested, 0.12% active; in the data active = activation above about 50%; inconclusive = about 30% to 50%; inactive = below about 30%; also: 0% is about no effect; the text of the record puts the active cut at 80%
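Tetracycline-induced TRPML1-DL cells are seeded and incubated overnight before loading with a no-wash Ca2+ dye and quencher. Agonist activity is taken from the 110 s fluorescence read following compound pin-transfer on an FDSS, before EC80 54-4 challenge.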
Sfp inh – blocks B. subtilis Sfp PPTase activity; Biochemical Sfp PPTase activity, qHTS; Q9F4F7; 310,000 tested, 3.5% active; Potency, µM, for the others: max response, negative = inhibition, usual class: inhibitors; active = well fitted inhibition curve with a large enough effect; inconclusive = small, poorly fitted or top-dose-only effect, or another doubt; inactive = no such curve, though single readings can be large or run the other way;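 also: the enzyme is Sfp with the accession as filed and its product quenches rhodamine fluorescence; potency is read from the fitted curve at half-maximal effect; 0% = enzyme reaction without inhibitor and -100% = no enzyme wells; top concentration of the series not given in the record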
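Reaction rates are the 30-min fluorescence difference (ex 525, em 598 nm) in wells containing 15 nM Sfp, 5 uM rhodamine-CoA and 12.5 uM BHQ-2-YbbR at pH 7.6 with 10 mM MgCl2.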
* = called active by the depositor; ? = inconclusive; nt = no result given; & = joins results of further samples; [ ] = dose if it differs, or a comment. An excerpt (hit frequency here may not be typical).

SMILES | Menin MLL FP FL | TRPML1 inh | PINK1 expr mod | TRPV1 potentiator | ClpP mod | TRPML1 ag | Sfp inh
C[C@H]1CCC/C=C/[C@@H]2C[C@H](O)C[C@H]2[C@H](O)/C=C/C(=O)O1 | 0.2 | 5&-8 | 0.2%&0.2% | 14&12 | -1.6%&0.1% | -0.3&0.2 | -18%
Cc1cccc(-n2c(O)c(C=Nc3ccc(Br)cn3)c(=O)[nH]c2=O)c1 | 0.8 | -3 | -0.5% | -7 | nt | -0.8 | -15%
CCOC(=O)COc1ccc2c(c1)c(C(C)=O)c(C)n2Cc1ccccc1 | 1.8 | 6 | 8.3% | -3 | -5.6% | -0.9 | -7%
CN1CCN(C(=S)SCC(=O)Nc2ccc(Cl)cc2C(=O)c2ccccc2)CC1 | nt | 43 | -2.4% | 1 | -6.6% | 2.1 | -8%
Cc1cc(C=C2C(=O)NC(=O)NC2=O)c(C)n1-c1cccnc1 | -0.4 | 10 | 0.9% | 1 | nt | 0.9 | -13%
C=CCn1c(O)c(C=NCCCn2ccnc2)c(=O)[nH]c1=O | 1.9 | 64 | 0.9% | -2 | nt | 0.2 | -8%
Cc1cccc(-n2c(O)c(/C=N/N3CCOCC3)c(=O)[nH]c2=S)c1 | 4.9 | -2 | 3.6% | -3 | 0.4% | 0.1 | -22%
CN(C)S(=O)(=O)c1cc(NC(=O)C[N+]23CCN(CC2)CC3)ccc1Cl | 2.4 | -5 | 0.2% | 3 | 1.5% | 0.3 | 9%
S=P(NC1CCCCC1)(N1CC1)N1CC1 | 2.1 | 3 | -0.1% | 8 | -0.2% | 1.5 | ?
O=C(COc1cccc(Cl)c1)N1CCN(CCc2ccncc2)CC1 | nt | -3 | 0.5% | nt | -1.1% | -0.1 | nt
COc1ccc(OC)c(CNCCc2ccc(OC)c(OC)c2)c1 | -0.1 | 61 | -0.7% | 1 | nt | 0.2 | -8%
Cc1cccc([N+](=O)[O-])c1 | nt | 5 | 2.6% | -6 | 0.0% | -0.7 | nt
O=C1OCCC1C(=O)c1ccccc1 (stereo not drawn) | nt | -7 | -0.9% | nt | -1.7% | -0.4 | nt
CCNC(=S)N(C)CCc1cc2c(c(OC)c1C=C1C(=O)N(C)C(=O)N(C)C1=O)OCO2 | 5.1 | 0 | 0.9% | -1 | nt | 0.3 | -6%
O=C(Cc1ccccc1)N1CCN(Cc2ccc(F)cc2)CC1 | -4.5 | nt | 0.0% | -17 | -0.1% | nt | -23%
O=C1C(=O)N(c2ccccc2)P(=O)(N(CCCl)CCCl)N1c1ccccc1 | nt | -2 | 0.8% | nt | nt | -0.1 | nt
COC(=O)C1=C(c2ccc(F)cc2OCc2ccccc2)C[C@@H]2CC[C@H]1N2C(=O)NCc1ccc(C)cc1 | nt | 62 | -1.3% | -5 | -5.3% | 1.4 | nt
CCOP(=O)(OCC)C(NC(=O)c1cccc([N+](=O)[O-])c1)C(Cl)(Cl)Cl (stereo not drawn) | 3.2 | 2 | -1.7% | 4 | 32µM* | -0.3 | 9%
CCP(=S)(CC)c1ccc(N(C)C)cc1 | -0.2 | 5 | 0.9% | -2 | nt | 0.2 | 3%
COc1ccc2c(c1)C(NC(C)=O)CCc1cc(OC)c(OC)c(OC)c1-2 (stereo not drawn) | nt | 15 | 4.9% | nt | -3.7% | 0.8 | nt
CN1CCN(C(=O)COc2ccc(S(=O)(=O)Nc3ccc(F)cc3)cc2)CC1 | nt | 0 | -0.9% | 10 | -0.3% | 0.2 | 7%
CN1C(=O)C(=Cc2ccccc2Oc2ccc(Cl)c(F)c2)C(=O)N(C)C1=O | 4.8 | 41 | 18% | ? | 6.2% | 2.3 | 56µM*
Cc1cc(OCC(=O)Nc2cc(C)nn2-c2ccccn2)c2c3c(c(=O)oc2c1)CCC3 | 0.9 | nt | nt | 1 | nt | nt | 9%
COc1cc2c(cc1OC)[C@@H]1C(=O)c3ccc4c(c3OC1CO2)CC(C(C)C)O4 (stereo partly drawn) | -2.2 | nt | 7.9% | nt | nt | nt | -23%
O=C(Cc1ccccc1)OCc1ccccc1 | nt | -9 | 0.4% | -10 | -1.8% | 1.6 | nt
O=C(CCS(=O)(=O)c1ccc(Br)cc1)N1CCC2(CC1)OCCO2 | 0.6 | -7 | -1.3% | -3 | -2.2% | -0.7 | 14%
CC(C)CC(NC(=O)C1CCCCC1)C(=O)N1CCC2(CC1)OCCO2 (stereo not drawn) | -0.8 | -6 | 1.4%[38.3 µM] | -1 | 0.0% | -0.7 | -2%
CN(C)C(=Nc1ccccc1)P(=S)(N(C)C)N(C)C | -0.5 | 15 | 0.8% | -10 | nt | -0.6 | -8%
Nc1ncc2[nH]cnc2n1 | nt | 15&0 | 3.7%&-0.5% | 6&4 | 1.4%&3.9% | -0.3&-0.5 | 5%
COC(=O)C1=C(c2cc3ccccc3s2)C[C@@H]2CC[C@H]1N2C(=O)NCCNC(C)=O | nt | -3 | 2.4% | nt | 0.0% | -0.6 | nt
C#C[C@]1(O)CC[C@H]2[C@@H]3CCC4=CC(=O)CC[C@]4(C)[C@H]3CC[C@@]21C | 0.2 | 0 | 1.0% | 14 | 0.7% | -0.4 | -8%
O=C(N/N=C\C1C(=O)NC(=S)N(c2ccccc2)C1=O)c1ccc(O)cc1 (stereo not drawn) | 17 | -13 | 2.1% | 0 | nt | -0.9 | -7%
O=C(Cn1c(=S)[nH]c2ccccc2c1=O)N1CCC2(CC1)OCCO2 | -2.1 | 5 | -1.9% | -2 | 0.6% | -0.7 | 0%
COc1ccc(-n2nnnc2C(CCc2ccccc2)N2CCC3(CC2)C(=O)NCN3c2ccccc2)cc1 (stereo not drawn) | nt | nt | -1.3% | nt | 1.9% | -0.6 | nt
C[N+](C)(C)CC1CCCC1=O (stereo not drawn) | nt | -4 | -5.2% | nt | -4.1% | -0.3 | nt
CNc1ccc2nc3ccccc3[n+](C)c2c1 | ? | -4 | 6.4% | -5 | 0.2% | 2.1 | -25%
CC(=O)OC1N=C(c2ccccc2Cl)c2cc(Br)ccc2N(C)C1=O (stereo not drawn) | 0.9 | -8 | -1.3% | 0 | -4.5% | 1.2 | -19%
COc1ccc(CN2CCN(C(=O)Cc3ccccc3)CC2)cc1Br | -5.1 | 11 | 0.6% | -16 | 0.3% | -0.6 | 89µM*
Cc1ccc2[nH]c(C)c(CCNCc3cccnc3)c2c1 | 2.4 | -15 | -1.6% | 4 | -2.5% | 0.6 | -2%
COc1ccc(P2(=O)Nc3ccccc3N2)cc1 | ? | -9 | -1.7% | -8 | -0.1% | 0.1 | 24%

Entries of single compounds from above:
Listed for `COC(=O)C1=C(c2cc3ccccc3s2)C[C@@H]2CC[C@H]1N2C(=O)NCCNC(C)=O` → Menin MLL FP FL = nt; TRPML1 inh = -3; PINK1 expr mod = 2.4%; TRPV1 potentiator = nt; ClpP mod = 0.0%; TRPML1 ag = -0.6; Sfp inh = nt
Listed for `COc1ccc(CN2CCN(C(=O)Cc3ccccc3)CC2)cc1Br` → Menin MLL FP FL = -5.1; TRPML1 inh = 11; PINK1 expr mod = 0.6%; TRPV1 potentiator = -16; ClpP mod = 0.3%; TRPML1 ag = -0.6; Sfp inh = 89µM*

(cont.)
SMILES | Menin MLL FP FL | TRPML1 inh | PINK1 expr mod | TRPV1 potentiator | ClpP mod | TRPML1 ag | Sfp inh
CCCCn1nnnc1C(c1cccc(OC)c1OC)N1CCC2(CC1)C(=O)NCN2c1ccccc1 (stereo not drawn) | nt | nt | 0.0% | nt | -1.6% | -0.6 | nt
CCN1CCN(c2ccc([N+](=O)[O-])cc2C#N)CC1 | 1.7 | 22 | 2.9% | 1 | nt | -0.6 | 19%
C[C@H]1C(=O)O[C@@H]2CCN3CC=C(COC(=O)[C@](C)(O)[C@]1(C)O)[C@H]23 | 5.2 | -19 | 1.7% | 5 | -0.9% | -0.4 | 7%
C=CCn1c(O)c(/C(C)=N/N2CCN(C)CC2)c(=O)[nH]c1=O | 3.3 | -14 | -0.1% | -3 | nt | 0.9 | 9%
COC(=O)C1=C(c2ccc(Cl)c(C(F)(F)F)c2)C[C@@H]2CC[C@H]1N2C(=O)NCC1CC1 | nt | 19 | 0.5% | -14 | 1.8% | 1.4 | nt
CSc1nc(C)c(Br)c(N2CC2)n1 | nt | -14 | ? | nt | nt | 5.6 | nt
CC(C)N(C(=O)CCl)c1ccccc1 | 1.0 | 23 | -0.5%&-2.0% | nt | -0.9% | -0.1 | 3%
O=C(N/N=C/c1c(O)n(CCc2ccccc2)c(=O)[nH]c1=O)c1ccncc1 | 7.9 | -8 | 6.2% | -6 | -3.2% | 0.0 | 2%
OCC1CO1 (stereo not drawn) | nt | -4 | 0.1% | 2 | -0.6% | 0.6 | nt
O=P(/C(=N/O)N1CCOCC1)(N1CCOCC1)N1CCOCC1 | -0.1 | -4 | 0.2% | -1 | 0.9% | 0.4 | -4%
COC(=O)C(C#N)C(c1cccnc1)c1c(C)[nH][nH]c1=O (stereo not drawn) | -3.0 | 43 | nt | 4 | 0.1% | 1.3 | ?
S=C=Nc1ccccn1 | -0.3 | 2 | -1.8% | 1 | -6.2% | 3.7 | -29%
CC(C)N1CCC2(CC1)NC(CO)(CO)CO2 | -2.1 | 2 | 4.3% | 4 | 0.7% | -0.7 | 6%
CN(C)CCN=Cc1c(O)n(C2CCCCCC2)c(=O)[nH]c1=O | 4.2 | 13 | -0.2% | -4 | 1.1% | 0.4 | 4%
COc1cc2c(cc1O)C[C@H]1NCCc3cc4c(c-2c31)OCO4 | 2.2 | -8 | -2.0% | 3 | 3.5% | 1.6 | -7%
COC1=CC(=O)OC(/C=C/c2ccccc2)C1 (stereo not drawn) | 1.3 | -19 | 0.2% | -6 | -0.8% | -0.3 | -9%&9%
CN(C)C(=O)Oc1ccc2c(c1)O/C(=C\c1cccc([N+](=O)[O-])c1)C2=O | -5.5 | nt | 0.8% | 2 | 0.7% | nt | -3%
O=C(c1ccc2c(c1)OCO2)C1CCCN(Cc2ccc(F)c(F)c2)C1 (stereo not drawn) | nt | 8 | 5.5% | -6 | -3.2% | 2.3 | 20%
CN1C2CCC1C(C(=O)O)C(O)C2 (stereo not drawn) | nt | 9 | -0.1% | nt | -2.3% | 0.5 | nt
C/C(=N\N1CCCCCC1)c1c(O)n(-c2ccccc2C)c(=O)[nH]c1=O | -1.2 | 11 | 1.9% | -3 | -0.7% | 0.7 | 17%
COC(=O)COc1cc(Cl)c(Cl)cc1Cl | 0.4 | nt | -0.9% | nt | nt | nt | -2%
